DUX4 inh = blocks DUX4-driven transcriptional activation | activity change, negative = inhibition, % (no concentration beside the values) | 0.8% of 37,000 active | 293T-iDUX4 ZSCAN4-Gaussia luciferase reporter, 24 h; stronger effect = lower value;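 active = -10% or lower and over 25 points stronger than a control reporter; inconclusive = -10% or lower with a smaller gap; inactive = above -10%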;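 also: 0% = median of neutral control wells and -100% = median of positive control wells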
DUX4 inh difference = second read-out of DUX4 inh, no call of its own (marks repeat the call); Gaussia minus Italica difference, %; measured here: selective DUX4 reporter inhibition;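 worked out from the two reporters; negative = selective loss of the DUX4 reporter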
DUX4 inh control = recorded beside DUX4 inh, whose call it bears; activity change, negative = inhibition, %; measured here: Italica tet-on control reporter;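 0 = neutral control and -100 = positive control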
The depositor's hits bear a star; ? = inconclusive; . = no result given. A portion of the library. The share of hits here may be higher or lower than overall.

DUX4 inh	DUX4 inh difference	DUX4 inh control	smiles
4	8	-4.2	COc1ccc2c3c(n(C)c2c1)[C@@H](CO)N(Cc1ccccc1OC)CC31CN(C)C1
0	-3	2.5	C[C@@H]1CCCCO[C@@H](CN(C)Cc2ccncc2)[C@H](C)CN([C@@H](C)CO)C(=O)c2cc(NC(=O)Cc3ccccc3)ccc2O1
-3	-3	0.7	CN1C(=O)c2cc(NC(=O)Nc3ccccc3F)ccc2OC[C@H]2O[C@H](CC(=O)NCc3ccc(-c4ccccc4)cc3)CC[C@H]21
-3	-3	0.3	C[C@H](CO)N1C[C@H](C)[C@H](CN(C)Cc2ccc(Cl)c(Cl)c2)Oc2ccc(NS(=O)(=O)c3ccccc3)cc2C1=O
0	1	-1.2	CCCC(=O)Nc1ccc2c(c1)C(=O)N(C)[C@H]1CC[C@H](CC(=O)NCC(F)(F)F)O[C@@H]1CO2
-3	-1	-1.2	CO[C@@H]1CC[C@H]2CCOc3ccc(C#N)cc3C(=O)N(C)C[C@@H](C)C(=O)N(C)C[C@H]1O2
8	-5	13	Cn1cnc(CCNC(=O)C[C@H]2CC[C@@H]3[C@H](COC[C@@H](O)CN3C(=O)Nc3ccc(F)cc3)O2)c1
9	8	1.5	CN1[C@@H]2c3ccc(C4=CCCCC4)c(=O)n3C[C@H]1[C@H](CO)[C@H]2C(=O)NCc1cc(F)cc(F)c1
0	-1	0.8	Cc1cccc(CN(C)C[C@@H]2OCc3cn(nn3)CCCC(=O)N([C@H](C)CO)C[C@@H]2C)c1
2	8	-6.0	COC(=O)[C@H]1[C@H](CO)[C@H]2Cn3c(cccc3=O)[C@H]2N1C(=O)C1CCC1
0	3	-3.0	N#C[C@H]1[C@H](c2ccc(C#CC3CCCCC3)cc2)[C@@H](CO)N1C(=O)c1cccc(F)c1
9	2	7.9	OC[C@@H]1[C@@H](c2ccc(C#CC3(O)CCCC3)cc2)[C@H]2CN(Cc3cncnc3)CCCCN12
3	0	3.4	CN(C)C(=O)C[C@@H]1CC[C@@H]2[C@H](COC[C@H](O)CN2Cc2ccc(C(F)(F)F)cc2)O1
?	.	.	O=C(C[C@@H]1CC[C@H]2[C@@H](COC[C@H](O)CN2Cc2cccc(Cl)c2)O1)NCc1cccc(F)c1
-1	-2	1.7	O=C(C[C@H]1CC[C@H]2[C@@H](COC[C@@H](O)CN2C(=O)Nc2ccc(Cl)c(Cl)c2)O1)NCc1ccccc1
2	1	1.1	COc1ccc(NC(=O)Nc2ccc3c(c2)C(=O)N([C@H](C)CO)C[C@H](C)[C@H](CN(C)C(=O)NC2CCCCC2)OCCCC[C@H](C)O3)cc1
-5	-4	-0.2	C[C@@H](NC(=O)C[C@@H]1CC[C@@H](NC(=O)Cc2ccccn2)[C@H](CO)O1)c1ccccc1
?	.	.	C[C@@H]1CN([C@@H](C)CO)C(=O)CCCn2nncc2CO[C@@H]1CN(C)Cc1ccc(C(=O)Nc2ccccc2N)cc1
0	-3	3.0	CCCNC(=O)[C@H]1[C@H](CO)[C@H]2Cn3c(ccc(-c4ccccc4F)c3=O)[C@@H]1N2C(C)=O
-6	-2	-4.0	C[C@@H](NC(=O)C[C@@H]1C[C@@H]2c3cc(NS(=O)(=O)c4ccc(F)cc4)ccc3O[C@@H]2[C@@H](CO)O1)c1ccccc1
1	1	0.6	CCCN1C[C@H](C)[C@H](OC)CN(C)C(=O)c2ccc(NC(=O)CC(F)(F)F)cc2OC[C@@H]1C
2	3	-0.9	CN(C)CC(=O)N1[C@@H](CO)[C@@H](c2ccccc2)C12CN(C(=O)c1cccc(F)c1)C2
2	-2	3.8	CNC[C@@H]1Oc2ncc(/C=C/c3ccccc3)cc2C(=O)N([C@H](C)CO)C[C@H]1C
0	-4	3.8	C[C@H]1CN([C@@H](C)CO)C(=O)c2cc(NS(=O)(=O)c3ccc(Cl)cc3)ccc2O[C@@H]1CN(C)CC1CCCCC1
3	-8	12	O=C(C[C@@H]1CC[C@@H]2[C@H](COC[C@H](O)CN2CC2CCOCC2)O1)NCC1CCCCC1
7	8	-1.6	O=C(C[C@@H]1CC[C@H]2[C@@H](COC[C@@H](O)CN2C(=O)c2cccnc2)O1)Nc1ccc(-c2ccccc2)cc1
-2	1	-3.0	CN1C(=O)c2cc(NC(=O)NCc3ccccc3)ccc2OC[C@H]2O[C@@H](CC(=O)NCC3CCCCC3)CC[C@@H]21
-1	8	-9.6	COc1ccccc1-c1ccc([C@H]2[C@@H](CO)N3CCCCN(C(=O)c4cccnc4)C[C@H]23)cc1
4	5	-1.5	CC(C)C#Cc1ccc([C@H]2[C@@H](C#N)N(C(=O)CN(C)C)[C@@H]2CO)cc1
-2	-3	1.9	CC(C)C#Cc1ccc2c(c1)O[C@@H](CN(C)C(=O)c1ccncc1)[C@@H](C)CN([C@@H](C)CO)S2(=O)=O
13	14	-0.8	COc1ccc2c3c(n(C)c2c1)[C@@H](CO)N(C(=O)Nc1ccc(F)cc1)CC31CN(C(=O)CN2CCOCC2)C1
3	4	-1.3	CCCNC(=O)N1C[C@H](O)COC[C@@H]2O[C@@H](CC(=O)N[C@@H]3CCN(Cc4ccccc4)C3)CC[C@H]21
1	3	-2.4	O=C(NCc1ccc(F)cc1)[C@H]1[C@H](CO)[C@H]2Cn3c(cccc3=O)[C@@H]1N2CC1CCCC1
2	1	0.8	CNC[C@H]1Oc2ccc(NC(=O)Nc3ccc(F)cc3)cc2C(=O)N([C@@H](C)CO)C[C@H]1C
0	2	-2.5	C[C@@H]1CCCCO[C@@H](CN(C)C(=O)c2ccncc2)[C@H](C)CN([C@@H](C)CO)C(=O)c2cc(NS(=O)(=O)c3cn(C)cn3)ccc2O1
6	9	-3.0	CN(C)CC#Cc1ccc([C@@H]2[C@@H](CO)N3C(=O)CN(C(=O)c4cccc(F)c4)C[C@@H]23)cc1
-7	-4	-2.3	COc1ccc(S(=O)(=O)N[C@H]2C=C[C@@H](CC(=O)N3CCC(Cc4ccccc4)CC3)O[C@@H]2CO)cc1
3	0	2.5	O=C(C[C@@H]1CC[C@@H]2[C@H](COC[C@@H](O)CN2C(=O)C2CC2)O1)NCc1ccccc1Cl
3	6	-3.1	O=C(C1CCCC1)N1CC2(C1)[C@H](c1ccccc1)[C@@H](CO)N2Cc1nccs1
5	5	0.5	C[C@@H]1CCCCO[C@@H](CN(C)Cc2ccc(C(F)(F)F)cc2)[C@@H](C)CN([C@H](C)CO)C(=O)c2cc(NC(=O)c3ccccc3)ccc2O1

Rewritten with two lines to a compound: entries from further up
Order of results: DUX4 inh	DUX4 inh difference	DUX4 inh control
COc1ccc2c3c(n(C)c2c1)[C@@H](CO)N(C(=O)Nc1ccc(F)cc1)CC31CN(C(=O)CN2CCOCC2)C1
  13	14	-0.8
CCCNC(=O)N1C[C@H](O)COC[C@@H]2O[C@@H](CC(=O)N[C@@H]3CCN(Cc4ccccc4)C3)CC[C@H]21
  3	4	-1.3

(next part)
DUX4 inh	DUX4 inh difference	DUX4 inh control	smiles
-4	1	-4.8	C[C@H]1CN([C@@H](C)CO)C(=O)c2ccccc2-c2ccccc2CO[C@H]1CN(C)S(=O)(=O)c1cn(C)cn1
4	-3	6.8	O=C(C[C@@H]1C[C@@H]2c3cc(NS(=O)(=O)c4ccccc4)ccc3O[C@@H]2[C@@H](CO)O1)NCC1CC1
-5	-8	2.8	CCC(=O)N1[C@@H]2Cn3c(ccc(-c4ccncc4)c3=O)[C@H]1[C@@H](C(=O)NC1Cc3ccccc3C1)[C@@H]2CO
-4	-2	-2.6	N#C[C@H]1[C@@H](c2ccc(-c3ccccc3F)cc2)[C@@H](CO)N1C(=O)C1CC1
2	6	-4.3	O=C(C[C@H]1CC[C@@H]2[C@H](COC[C@@H](O)CN2Cc2nccs2)O1)NCc1ccccc1F
3	-4	6.9	C[C@H]1CN([C@@H](C)CO)S(=O)(=O)c2ccc(C3=CCCCC3)cc2O[C@H]1CN(C)C(=O)Cc1cccnc1
3	2	0.9	CCN1[C@@H]2c3ccc(-c4cccnc4)c(=O)n3C[C@@H]2[C@@H](CO)[C@@H]1C(=O)NCCc1cn(C)cn1
-2	1	-2.8	C[C@H](CO)N1C[C@H](C)[C@H](CN(C)C(=O)c2ccccc2)Oc2cc(-c3cccc(C#N)c3)ccc2S1(=O)=O
0	-3	3.2	CCCN1[C@@H]2c3ccc(-c4cccnc4)c(=O)n3C[C@@H]2[C@@H](CO)[C@@H]1C(=O)NC1CCC1
0	2	-1.9	CNC[C@@H]1Oc2c(NC(=O)Nc3c(C)noc3C)cccc2C(=O)N([C@@H](C)CO)C[C@H]1C
0	-3	2.6	CO[C@H]1CN(C)C(=O)c2cc(NC(=O)Cc3ccccc3)ccc2OC[C@@H](C)N(C(=O)c2ccccc2F)C[C@@H]1C
1	2	-0.8	O=C(C[C@H]1C[C@@H]2c3cc(NC(=O)c4ccc5c(c4)OCO5)ccc3O[C@@H]2[C@H](CO)O1)NCC(F)(F)F
-1	0	-0.8	CC(=O)N1[C@H](CNC(=O)C2CC2)[C@@H](c2ccc(-c3ccc(F)cc3)cc2)[C@@H]1CO
-2	-3	0.4	C[C@@H]1CN([C@H](C)CO)C(=O)c2cc(C#C[C@@H](C)O)cnc2O[C@@H]1CN(C)Cc1cncnc1
-4	-6	1.8	COc1ccc(CNC(=O)C[C@H]2CC[C@@H](NC(=O)CN(C)C)[C@H](CO)O2)cc1
1	-2	2.8	COc1cccc(S(=O)(=O)N(C)C[C@H]2Oc3cc(C4=CCCCC4)ccc3S(=O)(=O)N([C@H](C)CO)C[C@H]2C)c1
3	-2	4.2	COc1cccc(CN2[C@@H]3CN(C(=O)C4CC4)c4ccccc4[C@@H]3[C@@H]2CO)c1
?	.	.	Cc1cccc(S(=O)(=O)N2CC[C@@H]3[C@H]2c2cc(C#Cc4cccnc4)ccc2N[C@@H]3CO)c1
-4	-17	13	CC(C)CC#Cc1ccc([C@H]2[C@@H](CO)N3CCCCN(C(=O)Nc4ccccc4)C[C@@H]23)cc1
2	7	-5.2	Cc1cccc(S(=O)(=O)N2CCCCN3[C@@H](CO)[C@@H](c4ccc(C#C[C@@H](C)O)cc4)[C@@H]3C2)c1

Shown field by field: entries from further up.
> Cc1cccc(S(=O)(=O)N2CC[C@@H]3[C@H]2c2cc(C#Cc4cccnc4)ccc2N[C@@H]3CO)c1
  DUX4 inh = ? | DUX4 inh difference = . | DUX4 inh control = .

> CC(C)CC#Cc1ccc([C@H]2[C@@H](CO)N3CCCCN(C(=O)Nc4ccccc4)C[C@@H]23)cc1
  DUX4 inh = -4 | DUX4 inh difference = -17 | DUX4 inh control = 13

> Cc1cccc(S(=O)(=O)N2CCCCN3[C@@H](CO)[C@@H](c4ccc(C#C[C@@H](C)O)cc4)[C@@H]3C2)c1
  DUX4 inh = 2 | DUX4 inh difference = 7 | DUX4 inh control = -5.2

The list continues.
DUX4 inh	DUX4 inh difference	DUX4 inh control	smiles
22	7	15	O=C(c1ccc(F)cc1)N1CC[C@@H]2[C@@H](CO)Nc3ccc(C#CC4CC4)cc3[C@@H]21
3	-1	3.5	CO[C@@H]1CN(C)C(=O)c2ccc(NC(C)=O)cc2OC[C@H](C)N(C(=O)c2ccccc2)C[C@@H]1C
4	-5	9.1	O=C(C[C@@H]1CC[C@@H]2NC[C@H](O)COC[C@H]2O1)Nc1ccccc1
3	5	-2.6	N#C[C@@H]1N[C@@H](CO)[C@@H]1c1ccc(C#Cc2ccc(F)cc2)cc1
6	1	5.3	O=C(C[C@H]1CC[C@@H]2[C@H](COC[C@H](O)CN2S(=O)(=O)c2ccccc2)O1)NCCN1CCCC1
5	0	4.5	O=C(NCCN1CCCC1)[C@H]1[C@H](CO)[C@H]2Cn3c(cccc3=O)[C@@H]1N2C(=O)c1ccccc1
1	5	-3.5	C[C@@H]1CN([C@H](C)CO)C(=O)c2cccc(NC(=O)C3CCOCC3)c2O[C@H]1CN(C)C(=O)Nc1ccc2c(c1)OCO2
-5	-6	1.3	C[C@@H]1CN([C@@H](C)CO)C(=O)CCCn2cc(nn2)CO[C@H]1CN(C)C(=O)Nc1ccc(F)cc1
1	-1	1.9	C/C=C/c1ccc([C@H]2[C@H](CO)N(C(=O)CC)[C@H]2CNC(=O)C2CC2)cc1
1	-2	3.1	CN1C(=O)c2cc(NS(C)(=O)=O)ccc2OC[C@H]2O[C@@H](CC(=O)N3CCOCC3)CC[C@@H]21

Assay outcomes as filed in PubChem.
